Screening results from PubChem BioAssay.
Menin MLL FP FL: inhibitors of human menin-MLL interaction, wild-type MLL peptide | AID 1766 | FP activity change, % at 61.4 µM | Fluorescence polarization, fluorescein-MLL peptide displacement from menin | 290,000 tested, under 10 active; inconclusive = falling polarisation curve, or a change in total fluorescence; inactive = total fluorescence flat and polarisation flat or rising; no compound was filed as active; the % refers to the polarisation; negative = inhibition;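 also: % of control where 0% means no effect; inhibitors lower the polarisation; unlabelled MLL peptide was the positive control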
gsp ag: agonists of gsp mutant (McCune-Albright syndrome); gsp mutant cells, cAMP HTRF, 30 min; control for the full effect not named in the record; Potency, µM (titrated, usually from 76.9 µM), for the others: at the top dose activation (cAMP increase), hits mostly activators; 340,000 compounds, 0.13% hits; AID 624287; active = well fitted activation curve with a large enough effect; inconclusive = small, poorly fitted or top-dose-only effect, or another doubt; inactive = no such curve, though single readings can be large or run the other way; cell line not stated here;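 also: phosphodiesterase inhibitor Ro 20-1724 added with compounds to block cAMP breakdown; potency is read from the fitted curve at half-maximal effect; nearly all actives have a fitted effect of over 60% in size; about a fifth of the inactives were tested at one dose only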
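Cells stably selected in G418 were plated at 2000/well, grown 16-24 hr, then given compounds in DMSO with the PDE inhibitor […] (300 uM solution added) for 30 min at 37C; cAMP was read by HTRF.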
ClpP mod: qHTS Assay for Activators of ClpP; purified B. subtilis ClpP, FRET peptide cleavage, 20 min; Potency, µM (top dose mostly 57.5 µM), inactives show at the top dose activity change, negative = active; 340,000 compounds, 1.9% hits; active = well fitted falling curve with a large enough effect; inconclusive = small, poorly fitted or top-dose-only effect; inactive = no such curve, though single readings can be large or run the other way; also: potency is read from the fitted curve at half-maximal effect; the source files actives as falling curves though it sought activators and does not explain the sign; nearly all actives have a fitted effect of over 65% in size; many hits overshoot -100%
Target sequence (P80244 whole entry, looked up): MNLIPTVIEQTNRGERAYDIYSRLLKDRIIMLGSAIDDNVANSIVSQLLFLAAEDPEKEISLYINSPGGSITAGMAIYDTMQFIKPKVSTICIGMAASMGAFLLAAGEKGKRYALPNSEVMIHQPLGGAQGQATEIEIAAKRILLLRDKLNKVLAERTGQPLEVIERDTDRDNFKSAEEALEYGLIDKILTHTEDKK
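ClpP 10 microg/mL final, pH 8 Tris/KCl buffer with BSA, glycerol, Tween-20; compound pinned in; FRET-FV substrate; RT 20 min; Ex320/Em430; ΔFRET vs ADEP 5.8 microM, DMSO, no enzyme.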
TRPML1 blocker: blocks the human TRPML1 channel; TRPML1-inducible cells, Ca2+ dye fluorescence, FDSS; active compounds read low; inhibition of EC80 agonist-evoked calcium signal; activity change, negative = inhibition, % (test concentration not listed); 390,000 compounds, 0.02% hits; AID 624415; in the data active means activity change below about -50%; inconclusive means about -30% to -50%; inactive means above about -30%;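 also: stimulus is agonist 54-4 at its EC80 concentration; % is scaled to controls: 0 for no effect and ±100 for the full control effect; compound concentration not given in the record; the text of the record puts the active cut at -80%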
Target sequence (Q9GZU1 whole entry, looked up): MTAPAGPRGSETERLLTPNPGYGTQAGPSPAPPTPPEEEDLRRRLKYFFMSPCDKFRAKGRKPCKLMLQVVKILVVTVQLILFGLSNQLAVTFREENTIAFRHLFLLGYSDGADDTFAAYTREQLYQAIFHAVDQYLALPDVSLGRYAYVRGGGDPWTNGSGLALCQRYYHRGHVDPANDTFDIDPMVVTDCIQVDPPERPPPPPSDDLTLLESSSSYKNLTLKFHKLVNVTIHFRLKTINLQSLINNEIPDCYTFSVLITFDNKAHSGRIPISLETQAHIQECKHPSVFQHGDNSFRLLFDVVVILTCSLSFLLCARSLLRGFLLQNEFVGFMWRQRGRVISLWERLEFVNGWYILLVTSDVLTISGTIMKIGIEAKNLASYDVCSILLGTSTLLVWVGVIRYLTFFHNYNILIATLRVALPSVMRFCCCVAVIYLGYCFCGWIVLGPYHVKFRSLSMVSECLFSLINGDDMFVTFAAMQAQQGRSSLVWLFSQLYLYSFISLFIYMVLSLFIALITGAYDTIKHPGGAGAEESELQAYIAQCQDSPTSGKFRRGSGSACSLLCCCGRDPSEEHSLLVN
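TRPML1-DL cells, Tet-induced overnight (~16 h, 37 °C) at 1,500 cells/well, were loaded with Ca8 no-wash dye plus quencher for 45-90 min at room temperature. Compounds were pinned during FDSS kinetic reading; agonist 54-4 at EC80 (4 uM final) then added.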
gsp antag: gsp mutant antagonism. Potency, µM (titrated, usually from 76.9 µM), inactives show at the highest dose activity change, negative = inhibition, hits mostly inhibitors. 340,000 compounds, 0.4% hits. gsp-mutant cells, cAMP HTRF, 30 min; control for the full effect not named in the record; active = falling curve of any shape with a large fitted effect; inconclusive = falling curve, mostly with a smaller effect; inactive = flat or rising curve; cell line not stated here;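 also: intracellular cAMP measured with PDE inhibitor Ro 20-1724 present during compound exposure; potency is read from the fitted curve at half-maximal effect; % is scaled to controls: 0 for no effect and ±100 for the full control effect; nearly all actives have a fitted effect of over 65% in size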
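HTRF cAMP measurement after 30 min RT detection following 30 min, 37C compound treatment alongside […] (added as 300 uM solution) in G418-selected cells seeded at 2000/well and grown 16–24 h.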
TRPML1 ag: agonists of human TRPML1 channel; Q9GZU1; activation, % (no concentration beside the values); 410,000 compounds, 0.12% hits; AID 624414; TRPML1-expressing cells, Ca2+ dye fluorescence, FDSS; host cell line not named in the record; reference of the full effect not given here; in the data active = activation above about 50%; inconclusive = about 30% to 50%; inactive = below about 30%; also: 0% is about no effect; the text of the record puts the active cut at 80%
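Cells: TRPML1-DL, 1X Tet inducer, ~16 h at 37 degrees C/5% CO2. Dye: ABD Ca8 no-wash + quencher, 45-90 min RT. Read: 10 s baseline, compound add, 110 s agonist phase; 54-4 EC80 (4uM final), 110 s antagonist phase.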
Numbers without * were called inactive; ? = inconclusive; · = no result given; & = joins results of further samples; [ ] = remark or other dose.

SMILES	Menin MLL FP FL	gsp ag	ClpP mod	TRPML1 blocker	gsp antag	TRPML1 ag
Cc1ccc(C)c(S(=O)(=O)Nc2ccc(O)c3ccccc23)c1	1.5	-50%[inhibitor]	3.6%	·	0%	·
CCCC(=O)NC(NC(=S)Nc1c(C)n(C)n(-c2ccccc2)c1=O)C(Cl)(Cl)Cl (centres undefined)	-0.1	1%	0.7%	-1	1%	-0.5
O=c1oc2ccccc2c(N2CCC(c3ccccc3)CC2)c1[N+](=O)[O-]	-3.2	3%[15.4 µM]	·	-27	13%	1.5
O=C(Nc1cccc(-n2cnnn2)c1)c1ccc(C(F)(F)F)cc1	·	-22%	0.2%	8	-6%	-0.7
O=C(CSCc1ccc(Br)cc1)NCc1ccccn1	3.7	-8%	·	9	-4%	-0.6
Cc1ccc(Nc2nc(C(N)=O)c(NC(=O)c3ccccc3Br)s2)cc1	·	·	1.0%	17	·	1.1
COc1ccc(OCc2cccc(C(=O)O)c2)cc1	-1.4	-4%	16%	0	-7%	-1.2
C[C@H](NC(=O)c1ccccc1)C(=O)Nc1nc(-c2ccccn2)cs1	2.9	-15%[15.4 µM]	·	-4	-8%	1.3
CC(C(=O)NCc1ccc(F)cc1)c1ccc([N+](=O)[O-])cc1 (centres undefined)	1.9	37%	-0.2%	12	-1%	0.7
CCSc1nnc(NC(=O)CSc2ncccn2)s1	3.6	-1%	-2.1%	13	4%	-0.4
CCN=C(NS(=O)(=O)c1ccc(Br)cc1)c1ccc(Cl)cc1	2.6	-22%	-0.2%	6	-2%	-0.5
Cc1cnc(C(=O)OCC(=O)Nc2cccc(S(=O)(=O)N3CCOCC3)c2)cn1	·	-2%	1.4%	-16	10%	-0.6
C#CC[N+](C)(C)CCN1C(=O)C2C(c3ccccc3)C=CC(c3ccccc3)C2C1=O (centres undefined)	2.2	0%[15.4 µM]	·	-11	11%	1.2
CCOc1ccccc1N(CC(=O)Nc1ccccc1C(=O)OC)S(C)(=O)=O	1.8	27%	-1.2%	2	3%	-0.6
O=C(CN1C(=O)/C(=C/c2ccc(Cl)cc2)SC1=S)NC1C=CS(=O)(=O)C1 (centres undefined)	-3.3	-2%	-1.4%	20	-3%	0.9
COc1ccc(C2CC(=O)C=C(NNS(=O)(=O)c3ccc(C)cc3)C2)cc1 (centres undefined)	2.6	1%	-7.1%	12	-13%	-0.6
CN(C)C(=O)CNc1n[nH]c(=S)[nH]c1=O	2.9	?	0.3%	11	-14%	0.1
O=C(Nc1ccc(N2CCN(C(=O)c3ccccc3)CC2)c(Cl)c1)c1ccco1	3.8	-19%	-0.5%	8	?	1.5
CC(=O)Nc1ccc(OCC(=O)NCCc2ccc(Cl)cc2)cc1	2.1	-51%[inhibitor]	-1.5%	2	7%	-0.5
COc1ccc(Cl)cc1C(=O)CSc1nnnn1C1CCCC1	9.3	-22%	-1.4%	51	-2%	5.2
CSc1nc2c(c(=O)n1Cc1ccccc1)SC(C)C2 (centres undefined)	-6.5	-2%	-1.2%	-5	-4%	-0.1
CCC(C)c1ccc(NC(=S)N2CCN(S(C)(=O)=O)CC2)cc1 (centres undefined)	1.5	20%	0.1%	15	10%	1.1
O=c1c2cn[nH]c2[nH]c(=S)n1-c1cccc(Cl)c1	-0.1	-1%[15.4 µM]	0.9%	-3	9%	0.9
CC(C)CC(=O)n1sc(NC(=O)c2ccccc2)nc1=O	-1.0	-44%	0.7%	9	28µM*	-0.9
COc1cc2cc(CN(CCCN3CCOCC3)C(=O)Nc3ccc(F)cc3)c(=O)[nH]c2cc1OC	-4.1	-52%[inhibitor]	4.9%	-4	-9%	0.7
COc1ccc(N(CC(=O)Nc2cccc(N(C)S(C)(=O)=O)c2)S(C)(=O)=O)cc1OC	1.0	-13%	-0.2%	16	-16%	0.3
Cn1c(=O)c2[nH]c(Cc3cccc4ccccc34)nc2n(C)c1=O	·	-12%	·	10	0%	2.2
O=C(COC(=O)c1ccccc1)Nc1ccccc1Sc1ccccc1	3.0	-2%	-2.0%	20	0%	4.9
CCn1cc(/C=C(\NC(=O)c2ccc(OC)cc2)C(=O)N2CCOCC2)c2ccccc21	·	-13%	-2.8%	-10	-12%	-0.4
COc1cn(CC(=O)Nc2ccccc2)c(CN2CCCCC2)cc1=O	·	·	0.0%	?	·	1.4
COc1ccc(/C=C2/SC(=O)N(CCNC(=O)C3CC(=O)N(Cc4ccccc4)C3)C2=O)cc1 (centres undefined)	·	-106%[inhibitor]	-1.3%	4	·	-0.7
Cc1onc(-c2ccccc2)c1NC(=O)OC(C)c1cccnc1 (centres undefined)	·	19%	-2.5%	-3	·	-0.1
CC(=O)c1cc2c(cc1N(C(=O)c1ccco1)C(C(=O)NC1CCCC1)c1ccccc1F)OCO2 (centres undefined)	0.6	-1%[15.4 µM]	-0.4%	34	6%	-0.2
COc1ccc(S(=O)(=O)N(CCc2ccccc2)CC(=O)Nc2cccc(OC)c2)cc1	·	·	-2.7%	15	·	0.7
CCOc1ccc(N2CC(C(=O)NCCc3ccc(F)cc3)CC2=O)cc1 (centres undefined)	0.8	-10%[15.4 µM]	·	-3	7%	-0.6
Cc1cc(/C=C2\NC(=O)N(Cc3ccc(Cl)cc3)C2=O)c(C)n1C	2.5	0%	-0.5%	-2	2%	0.8
CCOc1ccc(NC(=O)C2CCN(S(=O)(=O)c3ccc4c(c3)C(C)(C)C(=O)N4C)CC2)cc1	-2.2	37%	0.6%	-10	5%	-0.7
CCOc1ccccc1Nc1sc(C(=O)c2ccccc2)c(N)c1C(=O)Nc1ccccc1	·	·	-1.5%	-24	·	7.9
ClC1(CNc2ccccc2)CCN(Cc2ccccc2)CC1	·	29%	·	-21	6%	-1.2
COc1ccc(CNC(=O)c2cccn2-c2nnc(N3CCCCC3)s2)c(OC)c1	·	·	?	6	·	1.2
O=C(Nc1nccs1)C1CC(=O)N(CCc2ccc(F)cc2)C1 (centres undefined)	8.6	-3%	·	-15	-2%	1.3
CCCOC(=O)C1=C(C)N(C)C(=O)NC1c1cc2c(cc1Br)OCO2 (centres undefined)	0.7	?	-0.5%	-3	1%	1.7
CCCCC1=CC2=C(c3ccco3)C(=O)C(C)(OC(=O)c3ccc(OC)cc3)C(=O)C2=CN1C1CC1 (centres undefined)	-6.0[11.7 µM]	13%	0.2%	8	2%	1.5
COc1ccc(-c2noc(CN(C(=O)COc3cc(C)c(Br)c(C)c3)C(C)C)n2)cc1	·	·	0.4%	9	·	2.7
Nn1cnc2scc(-c3ccco3)c2c1=O	-0.7	18%	·	63	1%	0.6

Retrieved one by one from the list above:
SMILES	Menin MLL FP FL	gsp ag	ClpP mod	TRPML1 blocker	gsp antag	TRPML1 ag
Cc1onc(-c2ccccc2)c1NC(=O)OC(C)c1cccnc1 (centres undefined)	·	19%	-2.5%	-3	·	-0.1
COc1ccc(S(=O)(=O)N(CCc2ccccc2)CC(=O)Nc2cccc(OC)c2)cc1	·	·	-2.7%	15	·	0.7

The list continues.
SMILES	Menin MLL FP FL	gsp ag	ClpP mod	TRPML1 blocker	gsp antag	TRPML1 ag
COc1ccc2oc(C(=O)Nc3nc(C)cs3)c(C)c2c1	·	-13%	3.9%	-10	-8%	0.3
CC(C)c1nc(CNC(=O)CC2C(=O)NCCN2Cc2cccc(F)c2F)cs1 (centres undefined)	·	-61%[inhibitor]	-1.8%	8	11%	0.6
CCc1nnc(NS(=O)(=O)c2ccc(NC(=S)NC(=O)/C=C/c3cccs3)cc2)s1	5.9	-22%[15.4 µM]	·	13	?	0.7
COc1cccc(NC(=O)C(OC(=O)c2ccccc2NS(=O)(=O)c2cccs2)c2ccccc2)c1 (centres undefined)	1.8	-9%[15.4 µM]	·	13	-8%	0.4
O=C(N/N=C\c1ccc(Oc2ccccc2)cc1)c1csnn1	2.5	-56%[inhibitor]	?	7	-2%	5.7
COC(=O)c1c(NC(=O)c2ccc(C)cc2)csc1C	-1.5	-16%[15.4 µM]	·	4	?	1.0
Cc1cccc(-c2c3c(=O)n(C)c(=O)n(C)c3c3cnc4ccccc4n23)c1	·	·	-16%	31	·	-0.8
CCOC(=O)c1cc2c(=O)n3ccccc3nc2n(CC(C)C)c1=NC(=O)c1c(-c2c(F)cccc2Cl)noc1C	2.4	-75%[inhibitor]	?	-7&0	-13%	1.3&1.2
Cc1ccc(S(=O)(=O)N(CC(=O)NCCSc2ccc(Cl)cc2)c2ccccc2C)cc1	·	·	-2.8%	60	·	0.9
O=C(CSc1nn(-c2ccccc2)c(=S)s1)NC(=O)NCc1ccco1	6.3	-25%	-0.4%	-4	0%	0.4
O=C1C(c2ccc(F)cc2)N(CCc2ccc(Cl)cc2)C(=O)CN1C1CCCCCC1 (centres undefined)	·	·	0.9%	-17	·	-0.1
Cc1ccc(S(=O)(=O)N2CCC(=O)N(CCOCc3ccccc3)CC2)cc1	-1.6	-10%	1.3%	-7	-8%	-0.3
O=C(COC(=O)c1ccc(F)cc1F)Nc1cc(S(=O)(=O)N2CCOCC2)ccc1Cl	·	-13%[15.4 µM]	·	62	-1%	3.4
O=C(COc1ccccc1Br)c1ccc2c(c1)OCO2	·	49%[15.4 µM]	·	4	-1%	1.1
O=C(CC1SC(=Nc2ccccc2)N(CCc2c[nH]c3ccccc23)C1=O)Nc1ccccc1F (centres undefined)	15	6%[15.4 µM]	0.2%	-20	-10%	-0.5
C=CC[C@@H](CC(=O)N(CCO)Cc1ccccc1)C(=O)N[C@@H](C)COC(=O)[C@@H](CC=C)CC(=O)OC(C)(C)C	·	4%	-0.2%	-7	-1%	0.1
NC(=O)[C@H]1CC2(CC(c3cccc(NC(=O)COc4ccc(Cl)cc4)c3)=NO2)CN1C(=O)CC(c1ccccc1)c1ccccc1 (some centres undefined)	0.6	·	-4.1%	24	-4%	1.0
CCCCn1nc(NC(=O)CCC)c2cc3cc(OC)ccc3nc21	-2.7	0%[15.4 µM]	32µM*	-14	-7%	-0.4
CCOC(=O)c1c[nH]c2c(C)cc(C)cc2c1=O	-0.1	20%	-0.2%	-12	8%	0.0
CN1C(=O)CC(c2ccco2)Sc2ccccc21 (centres undefined)	4.8	2%	-2.2%	-4	4%	0.4
CCc1c(C(=O)N/N=C/c2cccs2)nnn1-c1nonc1N	-2.1	7%[15.4 µM]	-1.0%	-10	-4%	-0.3
COc1ccc(S(=O)(=O)c2c(SC)nn(CC(=O)Nc3ccc(C)c(Cl)c3)c2N)cc1	·	·	-3.3%	-16	·	0.4
Nc1ccc2c(c1)C(=NO)c1ccccc1-2	·	-30%[inhibitor]	?	10	-6%	1.7
CSc1nn2c(C)c(C)c(C)nc2c1C#N	3.5	-31%[15.4 µM]	·	5	16%	0.8

Rows are unselected; any-hit rate near 2.1%.
